Screening results (PubChem)
Hsc70 – Hsc70 inhibitors, probe displacement, primary screen, biochemical, fluorescence polarization (AID 568) | displacement, % at 20 µM; hits with a dose series show IC50 in µM | Hsc70 fluorescence polarization, probe displacement; higher % means a stronger effect; strong numbers were not always called active | 83,000 tested, under 10 active;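 active = displacement above 50% without optical interference and an IC50 on retest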;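 also: ATPase domain with a fluorescein-tagged ATP probe; 0% = vehicle and 100% = excess ADP; read after one hour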
MT1-MMP reporter – inhibitors of MT1-MMP promoter transcription, cell-based, luciferase reporter, luminescence (AID 618) | MT1-MMP promoter luciferase reporter cells, luminescence | calls from a first round at 10 µM; hits with a dose series show EC50 in µM | 87,000 compounds, 0.62% hits;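 active = over half of the reporter light lost at 10 µM or EC50 under 50 µM; inactive = the rest and hits that failed the dose series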;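 also: actives suppress MT1-MMP promoter-driven transcription so potencies describe inhibitors; HT1080 fibrosarcoma cells; overnight exposure; toxic or luciferase-blocking compounds were not removed from the actives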
WNV NS2B-NS3 inh – blocks West Nile virus NS2B-NS3 protease activity; P06935; WNV NS2B-NS3 protease, fluorogenic substrate Ex360/Em465; stronger effect = lower value; z-score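 (tested at a level between 10 and 100 µM)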; 65,000 compounds, 0.18% hits; AID 577;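 active = z-score at -3 or under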;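 also: score is relative to mean and spread of the compound wells of a plate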
Target sequence (P06935 1371-1501 limits assumed): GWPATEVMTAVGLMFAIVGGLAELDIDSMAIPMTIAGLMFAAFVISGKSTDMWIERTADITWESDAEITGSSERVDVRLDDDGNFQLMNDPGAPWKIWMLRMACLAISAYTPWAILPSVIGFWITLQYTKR
Target sequence (P06935 1502-1679 limits assumed): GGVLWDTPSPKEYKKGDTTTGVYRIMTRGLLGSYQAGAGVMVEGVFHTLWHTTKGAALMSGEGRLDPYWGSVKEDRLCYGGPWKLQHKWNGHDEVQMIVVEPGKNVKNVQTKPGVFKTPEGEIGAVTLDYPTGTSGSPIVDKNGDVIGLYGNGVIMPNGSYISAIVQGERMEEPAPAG
* hit, by the source's call; i = inactive; x = not tested or not shown. An excerpt. The share of hits here may be higher or lower than overall.

SMILES | Hsc70 | MT1-MMP reporter | WNV NS2B-NS3 inh
CC(=O)Nc1sc2c(c1C(c1ccc(Cl)cc1)N1CCOCC1)CCCC2 (stereo unspecified) | -0.7% | i | x
Cc1cc(C)cc(N(CC(=O)NCC2CCCO2)S(=O)(=O)c2c(C)noc2C)c1 (stereo unspecified) | 1.5% | i | -0.68
CN(C(=O)COc1ccc(C(C)(C)C)cc1)C1CCS(=O)(=O)C1 (stereo unspecified) | 5.8% | i | -0.95
Cc1nnc2ccc(N3CCN(c4cccc(C(F)(F)F)c4)CC3)nn12 | -2.7% | i | 0.37
Cn1c(SCC(=O)c2ccccc2)nnc1-c1cnccn1 | -1.0% | i | -1.1
CC1(C)CC(=O)C2=C(C1)NC(=O)CC2c1ccccc1F (stereo unspecified) | -2.6% | i | 0.5
Cc1ccc(CCN2CC(C(=O)NCCCN(C)Cc3ccccc3)CC2=O)cc1 (stereo unspecified) | 0.5% | i | -0.65
COc1ccc(CCn2c(=N)c(C(=O)NCc3ccco3)cc3c(=O)n4ccccc4nc32)cc1 | 1.0% | i | 0.05
CCCCC(=NCCO)C1=C(O)C(C(=O)OC)C(C)(C)CC1=O (stereo unspecified) | -1.1% | i | -0.56
O=C(CSc1ccc2ccccc2c1)Nn1cnnc1 | 6.4% | i | x
c1ccc(-c2noc(CSc3nc4ccccc4o3)n2)cc1 | 2.9% | i | 1.1
Cn1c(C(=O)OCC(=O)NCC2CCCO2)cc2sccc21 (stereo unspecified) | 0.1% | i | 0.75
COc1ccccc1NC(=S)NNC(=O)c1ccc(Cl)cc1Cl | -2.8% | i | x
CCOC(=O)c1cc2n(n1)C(C(F)(F)F)CC(C)N2 (stereo unspecified) | 1.2% | i | 0.56
O=C(N1CCOCC1)N1c2ccccc2CC(N2CCOCC2)c2ccccc21 (stereo unspecified) | -1.1% | i | -0.47
COc1cccc(C(=O)CSc2nc3ccccc3n2CC(=O)N2CCOCC2)c1 | 7.7% | i | 0.06
Cc1cc(C)cc(OCc2nnc(SCC(=O)N3CCN(c4ccccc4)CC3)o2)c1 | -0.5% | i | -1
Cc1ccc(S(=O)(=O)NC(C)(C)CSc2nncn2N)cc1 | -14% | i | 0.43
CC(C)(C)C1=C[C@@H](CO)C[C@@H](CO)C1 | 1.9% | i | 1
CCOC(=O)c1ccccc1NC(=O)CCNC(=O)Cn1cnc2ccccc2c1=O | 4.2% | i | -0.99
C=CCc1cccc(Cl)c1OCCON1C(=O)CCC1=O | 4.0% | i | x
Cc1cc(NCCN2CCOCC2)n2ncc(-c3ccccc3)c2n1 | 1.2% | i | -0.21
Cc1cc(C)n(CC(O)Cn2c3ccc(Br)cc3c3cc(Br)ccc32)c(=O)n1 (stereo unspecified) | 3.8% | i | x
CN1CCN(c2nc3c(c(=O)n(C)c(=O)n3C)n2Cc2cccc3ccccc23)CC1 | 4.7% | i | -0.09
COc1ccc(N2CCN(C(=O)c3cccc(Cn4cc(Cl)cn4)c3)CC2)cc1 | -0.6% | i | 0.78

Other structures
SMILES | Hsc70 | MT1-MMP reporter | WNV NS2B-NS3 inh
COc1ccccc1CNS(=O)(=O)c1ccc(NC(C)=O)cc1 | -3.2% | i | -0.46
CCOC(=O)C1CCCN(c2ncnc3c2oc2ccccc23)C1 (stereo unspecified) | -4.8% | i | 0.69
CC1CCN(C(=O)Cn2c(=O)n(CCc3ccccc3)c(=O)c3ccccc32)CC1 | 1.4% | i | 0.55
CCOC(=O)c1cnc2c(ccc3ccccc32)c1NCCO | -0.6% | i | x
COCCN1C(=O)c2ccccc2C(C(=O)NCCCN2CCCC2)C1c1c[nH]c2ccccc12 (stereo unspecified) | 3.0% | i | 1.6
Cc1cc(C)c(S(=O)(=O)N2CCN(C)CC2)c(C)c1 | -0.5% | i | -0.04
CCCCOCCCNC(=O)c1c(-c2ccccc2)noc1C | -4.6% | i | 1.4
O=C(c1ccco1)N1CCN(S(=O)(=O)c2ccc3c(c2)CCN3C(=O)C2CCC2)CC1 | 11% | i | 0.43
Cc1cc(=O)[nH]c(N=N/C(=N/Nc2ccccc2C)c2ccccc2)n1 | 7.3% | i | x
O=C(c1ccc(Cl)cc1)N1CCCOC1 | 5.2% | i | -0.28
C=CCn1c(SC2CCOC2=O)nc2scc(C3CC3)c2c1=O (stereo unspecified) | -4.3% | i | -0.21
COc1cc(C2C(C(N)=O)=C(C)Nc3nc(CCCO)nn32)cc(OC)c1OC (stereo unspecified) | 3.5% | i | 0.35
Cc1cc(C)c(S(=O)(=O)N2CCCCC2)c(C)c1-n1ncnn1 | 6.4% | i | 1.4
O=C(O)C1CC1c1ccc(Br)cc1 (stereo unspecified) | 1.5% | i | -0.55
O=S(=O)(c1ccc2c(c1)OCCO2)N1CCN(c2cccc(Cl)c2)CC1 | 5.8% | i | 1.7
CCCSC1=C(C#N)C(c2ccccc2OCC)CC(=O)N1 (stereo unspecified) | -0.2% | i | -0.12
COc1ccc(N(C(=O)C(C)C)S(=O)(=O)c2cccs2)cc1 | 0.3% | i | x
Cc1cc(NC(=O)C2CC(c3ccc(F)cc3)=NO2)no1 (stereo unspecified) | -1.0% | i | -2
CCN(CC)C(=O)c1ccc(S(=O)(=O)N2CCC(c3nc4ccccc4s3)CC2)cc1 | 1.3% | i | x
O=C1C(c2ccncc2)N(CCC2=CCCCC2)C(=O)CN1C1CCCCC1 (stereo unspecified) | -0.3% | i | -0.28
CC(C)(C)NC(=O)C1CN(S(=O)(=O)c2ccccc2)CCN1S(=O)(=O)c1ccccc1 (stereo unspecified) | -7.9% | i | -0.52
Cc1noc(/C=C/N(C)C)c1S(=O)(=O)N1CCCC(C(=O)Nc2ccc3c(c2)OCO3)C1 (stereo unspecified) | 4.1% | i | 1.3
COC(=O)c1ccccc1NC(=O)CSc1nnc(-c2ccc(OC)cc2)n1C | 1.7% | i | x
O=C(O)C1C(c2ccccc2)C(C(=O)N2CCOCC2)C1c1ccccc1 (stereo unspecified) | -13% | i | 0.01
CC1CC(C)CN(CCCNC(=O)C2CCCN(c3nnc(N4CCCC4=O)s3)C2)C1 (stereo unspecified) | 4.7% | i | -0.5

Shown as a markdown table: three of the compounds above.
| molecule | Hsc70 | MT1-MMP reporter | WNV NS2B-NS3 inh |
| --- | --- | --- | --- |
| Cc1cc(C)c(S(=O)(=O)N2CCCCC2)c(C)c1-n1ncnn1 | 6.4% | i | 1.4 |
| O=S(=O)(c1ccc2c(c1)OCCO2)N1CCN(c2cccc(Cl)c2)CC1 | 5.8% | i | 1.7 |
| O=C(O)C1CC1c1ccc(Br)cc1 (stereo unspecified) | 1.5% | i | -0.55 |

An excerpt of these results, field by field.
> O=S(=O)(c1ccc2c(c1)OCCO2)N1CCN(c2cccc(Cl)c2)CC1
  Hsc70: 5.8% | MT1-MMP reporter: i | WNV NS2B-NS3 inh: 1.7

> CCCSC1=C(C#N)C(c2ccccc2OCC)CC(=O)N1 (stereo unspecified)
  Hsc70: -0.2% | MT1-MMP reporter: i | WNV NS2B-NS3 inh: -0.12

> COc1ccc(N(C(=O)C(C)C)S(=O)(=O)c2cccs2)cc1
  Hsc70: 0.3% | MT1-MMP reporter: i | WNV NS2B-NS3 inh: x

> Cc1cc(NC(=O)C2CC(c3ccc(F)cc3)=NO2)no1 (stereo unspecified)
  Hsc70: -1.0% | MT1-MMP reporter: i | WNV NS2B-NS3 inh: -2

(cont.)
SMILES | Hsc70 | MT1-MMP reporter | WNV NS2B-NS3 inh
CCCCN(CC)C(=O)CSc1nc2ccccc2c(=O)n1CC1COc2ccccc2O1 (stereo unspecified) | 2.7% | i | x
O=C(c1ccc2snnc2c1)N1CCCCC1 | -1.1% | i | x
OCCSc1c(F)c(SCCO)c(SCCO)c(F)c1SCCO | -0.9% | i | 0.94
COc1ccccc1CN(Cc1nc2ccccc2c(=O)[nH]1)S(=O)(=O)c1ccc2ccccc2c1 | -0.6% | i | x
NC(=O)CSc1nnnn1CC(CC(=O)O)c1ccccc1 (stereo unspecified) | -3.0% | i | -0.47
O=C(NCc1cccnc1)c1ccc(COc2ccccc2Br)o1 | 4.8% | i | -1.1
O=C(Nc1ccc(Cn2nnc3ccccc32)cc1)c1ccco1 | 0.2% | i | -0.34
O=C(O)c1cccc(S(=O)(=O)N2Cc3ccccc3C2)c1 | 1.2% | i | 2.2
Cc1nn(C)cc1CNC(=O)Nc1ccc(Br)cc1Cl | -4.3% | i | -0.8
O=C1C2CCCN2C(c2ccccc2F)N1c1cccc(Cl)c1 (stereo unspecified) | 1.6% | i | -1.8
O=C(NCCN1CCOCC1)c1cc(-c2ccco2)on1 | -4.0% | i | -0.89
C=CCOC(=O)CCC(=O)Nc1cccc2ccccc12 | 2.2% | i | -0.06
CS(=O)(=O)c1ccc(Cl)c(C(=O)O)c1 | -0.6% | i | 0.55
COc1ccc(OC)c(C2C(C(=O)Nc3cccnc3)=C(C)NC3=C2C(=O)CCC3)c1 (stereo unspecified) | -2.1% | i | -0.36
C=CCn1c(CCC(=O)O)ccc1-c1ccc(OC)cc1 | -2.0% | i | -0.21
Brc1ccc(-c2nn3c(-c4ccco4)nnc3s2)o1 | -1.1% | i | 1.4
O=C(c1cccnc1)N1C2CCC1CC(O)(c1ccc(F)cc1)C2 (stereo unspecified) | 0.3% | i | -0.89
O=C(Cn1ncc2c(=O)oc3ccccc3c21)NCC1CCCO1 (stereo unspecified) | 1.6% | i | -0.17
COc1ccc(-c2cc(N)n(CCC#N)n2)c(OC)c1 | -2.5% | i | 0.02
COc1ccc(-c2nnc(SCC(=O)N3CCCCC3)o2)c(OC)c1 | -6.8% | i | 1.1
CC(=O)c1cc(-c2ccccc2)n(CCC(=O)NCc2cccs2)c1C | 2.7% | i | 1.9
CC(C)n1nnnc1SCC(=O)NCc1cccs1 | 4.9% | i | 0.53
O=C1CC(SCc2nc3ccccc3[nH]2)C(=O)N1c1ccc(F)cc1 (stereo unspecified) | -2.1% | i | 1.6
CC12CCC(C(=O)N(CSC(=S)N/N=C\c3ccccc3)C1=O)C2(C)C (stereo unspecified) | 4.4% | i | x
CCOC(=O)C1CCN(C(=O)COc2ccc(Cl)cc2Cl)CC1 | 4.2% | i | -0.35

New compounds follow.
SMILES | Hsc70 | MT1-MMP reporter | WNV NS2B-NS3 inh
c1ccc2c3c([nH]c2c1)-c1[nH]ncc1CC3 | -5.1% | i | 1.3
O=C(C1CCN(S(=O)(=O)c2cccs2)CC1)N1CCc2ccccc2C1 | -2.4% | i | -0.01
CSc1nc(NC(C)C)nc(N2CCOCC2)n1 | 0.8% | i | -0.69
COc1cc(C(=O)Nc2nc3ccccc3[nH]2)cc(OC)c1OC | 6.7% | i | 0.28
CN(C)C(=O)c1ccc2c(c1)n(C)c(=O)n2C | -3.5% | i | x
O=S(=O)(Nc1nc2ccccc2nc1NCC1CCCO1)c1cccs1 (stereo unspecified) | 0.1% | i | -0.2
COC(=O)c1[nH]c2cccc(OC)c2c1NC(=O)CCN1CC(C)CC(C)C1 (stereo unspecified) | -2.2% | i | -0.91
Cc1oc(-c2ccc(Cl)cc2)cc1-c1nn2c(-c3ccco3)nnc2s1 | -5.1% | i | -0.58
COc1ccccc1/C=C/C1=NC(=C\N(C)C)/C(=O)O1 | -0.2% | i | x
CCOC(=O)CNC(=O)CSc1ncnc2c1cnn2-c1ccc(OC)cc1 | -1.7% | i | 0.29
CC(=O)Nc1ccc(Nc2ncnc3c2cnn3-c2cccc(C)c2)cc1 | 3.8% | i | -1.4
O=C(Cn1nnc2ccccc2c1=O)N1CCCc2ccccc21 | 2.5% | i | -0.13
COc1cccc(OCC(O)CN(CCO)Cc2ccccc2)c1 (stereo unspecified) | -7.1% | i | 0.32
COc1ccc(OC)c(C(=O)COC(=O)c2c(OC)cccc2OC)c1 | -5.6% | i | -1
Cc1ccc(-c2cc(C(F)(F)F)n3nc(C(=O)N4CCCC4)cc3n2)cc1 | 1.2% | i | -0.67
c1ccc(-c2ccccc2OCCn2cncn2)cc1 | 3.0% | i | 0.02
CC(=O)Nc1ccc(Cc2ccncc2)cc1 | 6.9% | i | 0.01
CCCn1nnnc1SCC(=O)NCc1ccccc1 | 2.3% | i | -1.2
CCOC(=O)CCn1cc(F)c(=O)n(Cc2ccccc2)c1=O | 1.8% | i | 0.23
COc1ccc(/C=C/C(=O)NC(=S)NNC(=O)c2ccco2)cc1 | -0.6% | i | x
COc1ccc(Cn2nnnc2C(C(C)C)N(Cc2ccco2)Cc2cccs2)cc1 (stereo unspecified) | -4.2% | i | -0.29
CCCCCOc1ccc(Cl)cc1CN1CCOCC1 | -2.5% | i | -0.23
Brc1ccc(-c2nc(-c3ccccc3)no2)o1 | 0.1% | i | -0.08
Clc1ccc2nc(N3CCNCC3)nc(-c3ccccc3)c2c1 | -6.0% | i | 0.74
Cc1cc(/C=C(\C#N)C(=O)NCc2ccco2)c(C)[nH]1 | 0.7% | i | x
CC(=O)NC(Cc1cc(C)ccc1C)C(=O)N1CCN(C(=O)Nc2ccc(C(C)=O)cc2)CC1 (stereo unspecified) | 0.2% | i | 0.99
CC(C)C(C(=O)NCC1CCCO1)N(Cc1ccco1)C(=O)CNS(=O)(=O)c1ccc(F)cc1 (stereo unspecified) | 2.7% | i | -0.02
